Six1-Eya2 inh: qHTS Assay for Inhibitors of the Six1/Eya2 Interaction; Homeobox protein SIX1 (Homo sapiens) + Protein phosphatase EYA2 (Homo sapiens), …; AlphaScreen GST-Six1/His-Eya2 binding, biochemical; hits give low values; control for the full effect not named in the record; activity change, % (test concentration not listed); 360,000 compounds, 0.56% hits; AID 651725, 2012; in the data active = activity change below about -65%; inconclusive = about -30% to -65%; inactive = above about -30%; further: on the % scale 0 is the no-effect control and ±100 the full control effect
Target sequence (O00167 whole entry, looked up): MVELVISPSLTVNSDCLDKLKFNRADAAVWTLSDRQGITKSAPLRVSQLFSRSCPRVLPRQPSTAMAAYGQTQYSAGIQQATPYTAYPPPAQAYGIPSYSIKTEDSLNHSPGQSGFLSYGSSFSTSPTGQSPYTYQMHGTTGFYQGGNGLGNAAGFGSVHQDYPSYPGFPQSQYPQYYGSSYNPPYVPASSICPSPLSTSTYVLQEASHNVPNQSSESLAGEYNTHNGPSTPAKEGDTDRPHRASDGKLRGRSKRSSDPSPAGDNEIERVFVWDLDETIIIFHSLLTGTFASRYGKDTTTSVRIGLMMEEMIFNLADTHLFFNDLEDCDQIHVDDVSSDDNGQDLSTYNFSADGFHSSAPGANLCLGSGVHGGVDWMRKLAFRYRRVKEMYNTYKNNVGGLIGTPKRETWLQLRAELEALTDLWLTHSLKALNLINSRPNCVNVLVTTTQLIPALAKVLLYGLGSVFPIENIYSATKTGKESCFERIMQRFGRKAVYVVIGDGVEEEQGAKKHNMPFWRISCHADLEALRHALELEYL
Target sequence (Q15475 whole entry, looked up): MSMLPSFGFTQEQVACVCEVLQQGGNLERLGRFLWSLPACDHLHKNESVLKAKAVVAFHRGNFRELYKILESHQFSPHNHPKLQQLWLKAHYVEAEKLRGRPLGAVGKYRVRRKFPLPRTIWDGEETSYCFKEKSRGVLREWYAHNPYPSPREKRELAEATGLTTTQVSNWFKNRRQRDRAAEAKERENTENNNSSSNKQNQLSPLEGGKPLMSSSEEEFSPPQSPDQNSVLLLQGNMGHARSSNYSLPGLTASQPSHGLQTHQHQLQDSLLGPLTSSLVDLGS
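GST-Six1 + His-Eya2 (5X stock: 250/500 nM); Tris pH 8.0, 300 mM NaCl, 0.05% BSA, 0.02% Tween 20; GSH donor/Ni acceptor beads; 1 h 37 °C dark; AlphaScreen readout.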
gsp agonist: qHTS for Agonist of gsp, the Etiologic Mutation Responsible for Fibrous Dysplasia/McCune-Albright Syndrome: qHTS | gsp mutant cells, cAMP HTRF, 30 min; control for the full effect not named in the record | Potency, µM (doses to about 76.9 µM), inactives show top-dose activation (cAMP increase), most hits filed as activators | 340,000 compounds, 0.13% hits | AID 624287, 2012; active = well fitted activation curve with a large enough effect; inconclusive = small, poorly fitted or top-dose-only effect, or another doubt; inactive = no such curve, though single readings can be large or run the other way; cell line not stated here;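 further: phosphodiesterase inhibitor Ro 20-1724 added with compounds to block cAMP breakdown; potency means the concentration at half of the fitted maximal effect; nearly all actives have a fitted effect of over 60% in size; about a fifth of the inactives were tested at one dose only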
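Cells in DMEM/10% FBS with G418 were pretreated with compounds in DMSO plus […] (300 uM stock) for 30 min at 37C. cAMP was measured by HTRF (cAMP-d2 plus anti-cAMP antibody-K) after 30 min at room temperature.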
CtBP-E1A blk: qHTS Assay for Inhibitors of the CtBP/E1A Interaction | CtBP / adenovirus E1A interaction (AlphaScreen) | AlphaScreen GST-E1A/His-CtBP binding, 1536-well; hits give low values; control for the full effect not named in the record | activity change, % (test concentration not listed) | 340,000 compounds, 0.49% hits; in the data active means activity change below about -65%; inconclusive means about -30% to -65%; inactive means above about -30%; further: on the % scale 0 is the no-effect control and ±100 the full control effect
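Protein mix (5X: 125 nM each GST-E1A, His-CtBP) was incubated with pinned compound 2 h at 37 deg C in dark, in 50 mM Tris pH 8.0 buffer with 300 mM NaCl. Glutathione donor and nickel acceptor beads followed; AlphaScreen signal read after 1 h.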
D2 agonist: Beta-Arrestin HTS for Positive Allosteric Modulators of the Human D2 Dopamine Receptor: Agonists; D(2) dopamine receptor (Homo sapiens), P14416; DiscoveRx PathHunter D2 beta-arrestin, luminescence, 90 min; 100% = 57 uM dopamine signal; activation, % (test concentration not listed); 360,000 compounds, 0.084% hits; AID 624465, 2012; in the data active = activation above about 40%; inconclusive = about 15% to 40%; inactive = below about 15%; further: compound concentration not given in the record; the text of the record calls up to 30% inactive
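Agonist mode: compounds alone added to overnight-plated D2 PathHunter cells for 90 min at 37 C, with 57 uM final dopamine (EC100) defining full response. Beta-arrestin recruitment detected by chemiluminescent reagent, read after 1 h at ambient temperature.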
gsp antagonist: qHTS for Antagonists of gsp, the Etiologic Mutation Responsible for Fibrous Dysplasia/McCune-Albright Syndrome: qHTS; gsp-mutant cells, cAMP HTRF, 30 min; control for the full effect not named in the record; Potency, µM (highest dose often 76.9 µM), for the others: at the highest dose activity change, negative = inhibition, most hits filed as inhibitors; 340,000 compounds, 0.4% hits; AID 624288, 2012; active = falling curve of any shape with a large fitted effect; inconclusive = falling curve, mostly with a smaller effect; inactive = flat or rising curve; cell line not stated here;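 further: intracellular cAMP measured with PDE inhibitor Ro 20-1724 present during compound exposure; potency means the concentration at half of the fitted maximal effect; on the % scale 0 is the no-effect control and ±100 the full control effect; nearly all actives have a fitted effect of over 65% in size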
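HTRF cAMP read-out (cAMP-d2 plus anti-cAMP antibody-K in lysis buffer, 30 min RT). Before lysis, cells are exposed to compounds with […] for 30 min at 37C in DPBS containing Ca/Mg, BSA and Tween 20.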
D2 potentiator: Beta-Arrestin HTS for Positive Allosteric Modulators of the Human D2 Dopamine Receptor: Potentiators; DiscoveRx D2 beta-arrestin cells, luminescence, 90 min; 100% = 57 uM dopamine signal; D(2) dopamine receptor (Homo sapiens), P14416; 360,000 compounds, 0.23% hits; potentiation, % (no concentration beside the values); active = potentiation of 50% or more; inconclusive = 30% to 50%; inactive = 30% or less;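 further: compound concentration not given in the record; tested on top of an EC20 dose of dopamine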
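PathHunter beta-arrestin assay in DiscoveRx D2 cells. Compounds were added with an EC20 of dopamine (50 nM final) for 90 min at 37 deg C. Luminescence was read 1 h after detection reagent, with 57 uM dopamine as the EC100 control.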
* = called active by the depositor; u = inconclusive; x = no result given; [ ] = dose if it differs, or a comment.

SMILES	Six1-Eya2 inh	gsp agonist	CtBP-E1A blk	D2 agonist	gsp antagonist	D2 potentiator
CC(OC(=O)CNC(=O)C1CCCCC1)C(=O)NCc1ccccc1 (stereo not drawn)	5	0%	0	3.0	6%	0
Cc1ccc(C(=O)NCCCNC(=O)c2ccco2)cn1	0	-4%[15.4 µM]	1	-6.4	5%	-5
COc1ccccc1NC(=O)c1nnn(Cc2ccccc2)c1NC(C)=O	4	u	-1	-0.2	0%	-41
Cc1ccc(Nc2cc(C(=O)NCCCN3CCOCC3)c3ccccc3n2)cc1C	-2	1%	1	-5.7	-4%	-18
CC#CC[N+](C)(C)CCCCCCCCCCCC	4	u	6	-4.2	13%	-4
COCCNC(=O)C/C(C)=N/NC(=O)C(=O)NC1CCCCC1	3	-2%[15.4 µM]	-1	-1.2	1%	-8
COc1cc(C(=O)Nc2nnc(C)s2)cc(OC)c1OC	-1	-10%	3	-5.6	1%	-8
CC1CCC(NC(=O)c2cc(C3CC3)nn2-c2ccccc2)CC1 (stereo not drawn)	-1	-21%	x	3.2	u	-13
COc1ccc(/C=C(\C#N)C(=O)OCC(=O)NC(C)c2ccccc2)cc1 (stereo not drawn)	5	5%[15.4 µM]	-1	-6.2	-1%	1
CC(=O)c1ccc(NC(=S)NCCc2cccc(Cl)c2)cc1	0	21%	5	2.2	-26%	-3
C[C@@H]1CN([C@@H](C)CO)S(=O)(=O)c2ccc(Br)cc2O[C@@H]1CN(C)S(=O)(=O)c1cn(C)cn1	-2	u	2	-7.2	x	1
Cc1ccc(C)c2sc(N)nc12	-1	-28%	x	5.8	8%	11
COc1ccccc1C(=O)NCCCNC(=O)c1ccccn1	-7	u	-10	-5.5	4%	-6
CCCCCC(=O)N1C[C@@H](O)[C@H](n2cc(-c3ccc(F)cc3)nn2)C[C@@H]1c1ccc(OC)cc1	-6	-68%[inhibitor]	0	-0.2	x	2
Cc1cc(=O)n2c(nc3ccccc32)s1	-22	4%	-3	-0.4	x	-4
CCCC(=O)Nc1ccc(C#Cc2ccccc2)cc1	1	-29%	8	2.9	-6%	u
Cc1ncc(CN2CCCC(CCC(=O)NCc3ccccc3F)C2)s1 (stereo not drawn)	-4	-4%[15.4 µM]	0	-4.8	10%	-3
CC(C)c1ccc(NC(=O)C2CCC(CNC(=O)[C@@H]3Cc4ccccc4CN3)CC2)cc1 (stereo partly drawn)	3	14%	1	-3.4	-1%	-20
COc1ccc(NC(=O)c2ccc(NC(=O)CN3CCN(c4ccc(O)cc4)CC3)cc2)cc1	-14	-22%	-9	124*	-2%	23
O=[N+]([O-])c1ccc(/C=N/NC(=S)Nc2ccc(Cl)cc2Cl)s1	-19	8%	-6	-2.6	3%	-10
Cc1ccc(-c2cc(N)n(-c3ccc(C)cc3)n2)cc1	-9	0%	-2	-3.8	-7%	0
Cn1cc(CC(=O)NC2CCCCC2)c2ccccc21	5	3%	-7	3.1	8%	3
CC(C)(Oc1ccc(Cl)cc1)C(=O)O	-1	x	0	-3.7	-4%	2
Cc1ccc2oc(=O)c(-c3ccc(O)cc3)c(C)c2c1	-1	-3%	-18	1.7	-6%	4
CC(=O)c1oc2ccccc2c1N	0	17%	5	-0.3	10%	-8

Later entries.
SMILES	Six1-Eya2 inh	gsp agonist	CtBP-E1A blk	D2 agonist	gsp antagonist	D2 potentiator
CC(C)NC1CS(=O)(=O)CC1O (stereo not drawn)	4	0%	5	0.6	-6%	-3
O=c1[nH]c2ccc(NC(=S)Nc3ccccc3Cl)cc2[nH]1	2	17%	2	-0.7	3%	-22
CCOc1ccc(CN2C(=O)c3ccccc3C2C(=O)NC(C)CC)cc1OC (stereo not drawn)	8	u	-9	4.7	9%	-6
CCOC(=O)C(C(=O)OCC)C(CC(=O)C1CC1)c1ccccc1 (stereo not drawn)	12	-7%	-2	-2.5	-1%	18
Cc1ccccc1C(=O)NNC(=O)CSc1nnc(C)n1-c1ccccc1	0	-37%[15.4 µM]	16	-6.0	-7%	5
C=CCc1cc(OC)ccc1OCCN(C)Cc1ccccc1	-24	u	-10	-2.1	5%	-15
Cc1cccc(NC(=O)c2cccc(NC(=O)c3ccco3)c2)c1C	15	12%	-2	0.1	-2%	-1
Cc1ccc(C)c(N2CCN(CC(=O)Nc3ccc([N+](=O)[O-])cc3C(=O)Nc3ccccc3F)CC2)c1	-18	-38%[inhibitor]	-12	-3.5	1%	-21
COc1cc(-c2cc(-c3ccccc3)nc(SCC(=O)O)c2C#N)cc(OC)c1OC	-13	7%[15.4 µM]	0	-0.3	-3%	-5
CCCNC(=O)c1ccc(N2CC3CC(C2)c2cccc(=O)n2C3)c(NC(=O)Nc2ccc(CC)cc2)c1 (stereo not drawn)	0	u	-3	-6.1	u	-1
CCOC(=O)CCc1nc2ccccc2[nH]1	6	-55%[inhibitor]	5	-1.1	4%	-8
Cc1ccc(C)c(NC(=O)C[n+]2ccccc2)c1	22	-12%[15.4 µM]	-12	-1.3	-8%	-5
CNC(=O)COc1coc(CN2CCN(C(=O)c3ccco3)CC2)cc1=O	2	-3%[15.4 µM]	1	-1.5	12%	-4
O=C(CNC(=O)c1ccc(Cl)cc1)OCCCOC(=O)CNC(=O)c1ccc(Cl)cc1	-3	-15%	1	-1.2	-9%	-6
Cc1ccc(NC2CCCN(C(=O)c3cn4cc(Cl)ccc4n3)C2)cc1C (stereo not drawn)	-5	u	x	-1.8	4%	-10
O=C(COC(=O)Cc1ccccc1[N+](=O)[O-])NCc1ccc(F)cc1	0	-3%	-8	-1.4	1%	-1
CC(/C=C/c1ccccc1)=N/NC(=O)c1nc2nc(C)cc(C)n2n1	5	-95%[inhibitor]	x	0.2	5%	-7
Cc1c(NC(=O)CSCc2c(F)cccc2Cl)c(=O)n(-c2ccccc2)n1C	4	-13%	9	1.7	-2%	-3
O=C(N=C1SC2CS(=O)(=O)CC2N1Cc1ccc(Cl)cc1)C1CCCO1 (stereo not drawn)	1	3%	3	0.2	7%	3
Nc1nccnc1C(=O)OCC(=O)Nc1cccc(S(=O)(=O)N2CCCCC2)c1	8	12%	14	-1.5	8%	-3
Cc1ccc(S(=O)(=O)N2CCCCC2)cc1NC(=O)COC(=O)CN1C(=O)NC2(CC(C)CC(C)(C)C2)C1=O (stereo not drawn)	-2	11%	x	-5.2	-14%	-4
CCc1ccc(NC(=O)c2sc3nc(C)nc(N4CCN(c5ccccn5)CC4)c3c2C)cc1	12	10%	5	1.5	-29%	-3
COc1ccc(CCNC(=O)COc2cc(O)c3c(c2)OC(C)(C)CC3=O)cc1	3	-23%	-1	-2.9	-19%	3
CCn1c(COc2cccc3cccnc23)nnc1SCC(=O)OC	-2	27%	x	-3.1	2%	0
Cc1cc(Nc2cccc(F)c2)nc(N2CCOCC2)n1	7	-8%	x	-3.3	-13%	-20

(more compounds)
SMILES	Six1-Eya2 inh	gsp agonist	CtBP-E1A blk	D2 agonist	gsp antagonist	D2 potentiator
CCN(CC)C(=S)NC(=O)c1ccc(Cl)cc1Cl	3	-41%[inhibitor]	0	-0.8	-5%	0
CCCc1nc2c3ccccc3ccn2c1Cc1ccc(OC)cc1C	1	x	-13	-5.7	x	-16
COc1ccc(NC(=O)CN2C(=O)CSC(C)C2=O)cc1 (stereo not drawn)	-6	-3%[15.4 µM]	-1	-5.5	13%	-9
CCOC(=O)c1nn(C23CC4CC(CC(C4)C2)C3)c2c1C(=O)N(c1ccc(C)cc1)C2=O	3	0%	1	-1.9	6%	4
Cc1ccc(S(=O)(=O)NN=C2C3CC4CC(C3)CC2C4)cc1	1	-20%	-2	-1.5	7%	19
CS(=O)(=O)N1CCN(C(=O)Nc2ccccc2)CC1	10	2%[15.4 µM]	-20	-5.3	1%	1
O=C(NCc1cccc(Cl)c1)c1ccc(-c2ccc(F)c(F)c2)c2ccoc12	23	x	7	3.1	x	-17
CC1CCCN(Cc2nc(Cc3ccccc3Cl)no2)C1 (stereo not drawn)	10	-4%	0	-4.1	5%	-4
CCOC1=NC(C(=O)O)c2ccccc2/C(=C(/C)Cl)N1 (stereo not drawn)	25	-3%	1	-3.7	23%	-9
O=C(Nc1ccc(Cl)cc1)N1CCN(c2ccc3nnc(-c4ccc(F)cc4)n3n2)CC1	-14	u	4	2.2	-27%	-12
Oc1ccc(/C=N/N2CCN(c3ccccn3)CC2)cc1	14	0%	1	1.5	2%	5
CC(C)CNC(=O)NC(=O)COC(=O)Cn1cnc2ccccc2c1=O	10	0%[15.4 µM]	1	-3.4	-6%	-28
CCN(C(=O)c1ccc2c(=O)n3c(nc2c1)CCCCC3)c1ccc(F)cc1	-1	-1%	-2	-3.5	-13%	0
CN(Cc1nc2ccccc2c(=O)[nH]1)C(=O)c1cccc(S(=O)(=O)N2CCc3ccccc32)c1	-7	-39%[inhibitor]	5	1.5	3%	-11
COc1ccc(OC)c(N(CC(=O)N2CCC(C)CC2)S(=O)(=O)c2ccc(OC)c(OC)c2)c1	0	9%	-4	-1.7	-4%	-17
Fc1cccc(CNCc2ccc3c(c2)OCO3)c1	0	8%	-14	-2.0	15%	-6
CCCc1cc(=O)[nH]c(SCC(=O)N2CCN(c3ccccc3)CC2)n1	2	-28%	8	0.2	-10%	-20
COc1cccc(NC(=O)CN(C)C(=O)c2ccc(-c3ccccc3Cl)o2)c1	-3	0%[15.4 µM]	0	-5.2	27%	-28
COc1ccccc1-c1nnc(SC(C(=O)c2c[nH]c3ccccc23)c2ccccc2)n1C (stereo not drawn)	-16	5%	x	-2.9	35µM*	-7
CCc1nc2c(OCCc3cccc(OC)c3)cccn2c1N(C=O)Cc1ccccc1	-13	x	-6	2.6	x	-3

Compound activity from PubChem BioAssay.
